Bioassay records as filed in PubChem.
NOMO-1 viab = STK33 inhibitor candidate reducing NOMO-1 cell viability. inhibition, % (concentration not given with the values). NOMO-1 AML viability, CellTiter-Glo luminescence, 72 h. hit rate 7.5% among 37,000;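 active = most replicates above 80%; inconclusive = exactly half above 80%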;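 also: wells of about 30 µL received 25 nL stock; 0% = median of vehicle wells and 100% = reference inhibitor level; the first replicate is given; inactives centre near 10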
Starred values were filed as active, the others as inactive; ? = inconclusive. The list is partial; count on the stated rates, not on these rows.

SMILES	NOMO-1 viab
Cc1c(Br)c([N+](=O)[O-])nn1C(C)C(=O)N1CCOCC1 (stereo unspecified)	15
N#Cc1c(C(F)(F)F)cc(-c2ccco2)nc1SCC(=O)Nc1cccc(C(F)(F)F)c1	-4
Cc1noc(C)c1S(=O)(=O)N(C)C[C@@H]1Oc2ccc(NC(=O)Cc3cn(C)c4ccccc34)cc2CC(=O)N([C@H](C)CO)C[C@@H]1C	10
C[C@@H]1CN([C@@H](C)CO)C(=O)c2cccc(NS(=O)(=O)c3ccc(Cl)cc3)c2O[C@H]1CN(C)C(=O)Nc1ccc2c(c1)OCO2	3
C[C@H]1CN([C@@H](C)CO)C(=O)c2cccc(NC(=O)c3cnccn3)c2O[C@H]1CN(C)S(=O)(=O)c1cn(C)cn1	8
Cc1noc(C)c1NC(=O)N(C)C[C@H]1Oc2ccc(NS(=O)(=O)c3c(C)noc3C)cc2C(=O)N([C@H](C)CO)C[C@H]1C	6
Cc1ccc(NC(=O)CN(c2ccc(C)c(Cl)c2)S(C)(=O)=O)c(C)c1	18
CNC[C@@H]1Oc2ccc(NS(=O)(=O)c3ccc(F)cc3)cc2CC(=O)N([C@H](C)CO)C[C@@H]1C	2
C[C@H]1CN([C@@H](C)CO)C(=O)c2cccc(NC(=O)Nc3ccc4c(c3)OCO4)c2O[C@H]1CN(C)CC1CCCCC1	23
COc1ccc(NC(=O)N(C)C[C@@H]2Oc3ccc(NC(=O)Cc4ccccc4)cc3C(=O)N([C@@H](C)CO)C[C@H]2C)cc1	-1
CNC[C@H]1Oc2c(NC(=O)c3nc4ccccc4s3)cccc2C(=O)N([C@H](C)CO)C[C@H]1C	33
Cc1nc2ccccc2nc1OCC(=O)c1ccc(Cl)cc1	30

Gathered by group, the entries above containing a Cl atom (three)
SMILES	NOMO-1 viab
C[C@@H]1CN([C@@H](C)CO)C(=O)c2cccc(NS(=O)(=O)c3ccc(Cl)cc3)c2O[C@H]1CN(C)C(=O)Nc1ccc2c(c1)OCO2	3
Cc1ccc(NC(=O)CN(c2ccc(C)c(Cl)c2)S(C)(=O)=O)c(C)c1	18
Cc1nc2ccccc2nc1OCC(=O)c1ccc(Cl)cc1	30

Remaining list, next part
SMILES	NOMO-1 viab
C[C@H](CO)N1C[C@H](C)[C@H](CN(C)Cc2ccc3c(c2)OCO3)Oc2c(NS(=O)(=O)c3ccccc3)cccc2C1=O	-8
C[C@@H]1CN([C@@H](C)CO)C(=O)Cc2cc(NC(=O)Cc3ccccc3)ccc2O[C@@H]1CN(C)S(=O)(=O)c1ccc(Cl)cc1	11
C[C@@H]1CN([C@H](C)CO)C(=O)Cc2cc(NC(=O)CCN3CCOCC3)ccc2O[C@@H]1CN(C)C(=O)Nc1ccccc1	-11
c1ccc(-c2csc3ncnc(NCC4CCCO4)c23)cc1 (stereo unspecified)	62
CSc1nsc(SCCN2C(=O)c3ccccc3C2=O)n1	22
CN(C)c1nc(Oc2ccc(OCCOc3ccccc3)nn2)nc(N(C)C)n1	2
N=c1n(CC(=O)c2ccc(Cl)c(Cl)c2)c2ccccc2n1Cc1ccccc1	93*
CNC[C@H]1Oc2ccc(NC(=O)Nc3ccc(OC)cc3)cc2CC(=O)N([C@H](C)CO)C[C@H]1C	2
COc1ccc(NC(=O)N(C)C[C@@H]2Oc3ccc(NC(=O)C4CCCCC4)cc3C(=O)N([C@@H](C)CO)C[C@@H]2C)cc1	-22
C[C@@H]1CN([C@H](C)CO)C(=O)c2cc(NC(=O)Cc3cn(C)c4ccccc34)ccc2O[C@H]1CN(C)C(=O)Nc1cccc2ccccc12	8
O=C(COc1ccc(Br)cc1)Nc1ccc2oc(-c3ccc(F)cc3)nc2c1	25
Cc1cccc(NC(=O)CSc2nnc(-c3ccc(Br)cc3)o2)c1C	-11

An excerpt from above in order of molecular weight, rising:
SMILES	NOMO-1 viab
c1ccc(-c2csc3ncnc(NCC4CCCO4)c23)cc1 (stereo unspecified)	62
Cc1cccc(NC(=O)CSc2nnc(-c3ccc(Br)cc3)o2)c1C	-11
CNC[C@H]1Oc2ccc(NC(=O)Nc3ccc(OC)cc3)cc2CC(=O)N([C@H](C)CO)C[C@H]1C	2
COc1ccc(NC(=O)N(C)C[C@@H]2Oc3ccc(NC(=O)C4CCCCC4)cc3C(=O)N([C@@H](C)CO)C[C@@H]2C)cc1	-22

Next structures:
SMILES	NOMO-1 viab
COc1ccc(NC(=O)N(C)C[C@H]2OCCCC[C@@H](C)Oc3ccc(NS(=O)(=O)c4ccc(F)cc4)cc3C(=O)N([C@H](C)CO)C[C@@H]2C)cc1	25
COc1cc(C2NC(=S)NC(c3ccccc3)=C2C(C)=O)cc(Cl)c1OCC(=O)O (stereo unspecified)	10
C[C@@H]1CCCCO[C@@H](CN(C)Cc2ccc(C(=O)Nc3ccccc3N)cc2)[C@@H](C)CN([C@H](C)CO)C(=O)c2cc(NC(=O)Nc3ccc(C(F)(F)F)cc3)ccc2O1	?
C[C@H](CO)N1C[C@H](C)[C@@H](CN(C)C(=O)NC2CCCCC2)Oc2c(NC(=O)c3cnccn3)cccc2C1=O	-1
Cc1cc(=O)[nH]c(SCc2cn3c(C)cc(C)nc3n2)n1	-6
COc1ccc(NC(=O)Nc2ccc3c(c2)C(=O)N([C@H](C)CO)C[C@H](C)[C@@H](CN(C)S(=O)(=O)c2ccc(F)cc2)O3)cc1	-9
Cc1noc(C)c1NC(=O)N(C)C[C@H]1Oc2ccc(NS(=O)(=O)c3ccccc3)cc2CC(=O)N([C@@H](C)CO)C[C@H]1C	3
C[C@H](CO)N1C[C@H](C)[C@H](CN(C)C(=O)Nc2ccc3c(c2)OCO3)Oc2ccc(NC(=O)Cn3cnnn3)cc2CC1=O	48
CC(NS(=O)(=O)c1ccc(Cl)cc1)C(=O)Nc1ccccc1C(F)(F)F (stereo unspecified)	2
O=S(=O)(c1cccc(NC(=S)NCc2ccco2)c1)N1CCOCC1	-11
COc1cccc(NC(=O)c2ccc(OC)c(OC)c2)c1	39
Cc1noc(C)c1NC(=O)N(C)C[C@@H]1Oc2ccc(NC(=O)Nc3cccc4ccccc34)cc2C(=O)N([C@@H](C)CO)C[C@H]1C	12
C[C@@H]1CN([C@@H](C)CO)C(=O)c2cccc(NC(=O)C3CCOCC3)c2O[C@@H]1CN(C)Cc1ccccc1	-5
C[C@H]1CN([C@@H](C)CO)C(=O)Cc2cc(NC(=O)CCN3CCOCC3)ccc2O[C@@H]1CN(C)C(=O)Nc1ccc(C(F)(F)F)cc1	15
Cc1noc(C)c1S(=O)(=O)Nc1cccc2c1O[C@@H](CN(C)S(=O)(=O)c1ccccc1)[C@@H](C)CN([C@@H](C)CO)C2=O	9
COc1cccc(-c2cc(C(=O)NCc3ccco3)c3cc(C)cc(C)c3n2)c1	10
CC(=O)c1cccc(NC(=O)CNS(=O)(=O)c2ccc(Br)cc2)c1	26
O=C(COc1ccc(Br)cc1Cl)Nc1ccccc1[N+](=O)[O-]	-1
CCn1c(SCC(=O)N2CCc3ccccc32)nnc1-c1ccccc1O	-6
CC(=O)Nc1ccc(NC(=O)CS(=O)(=O)Cc2ccccc2)cc1	51
CSc1n[nH]c(=O)n1-c1ccc2c(c1)OCCO2	-7
C[C@H](CO)N1C[C@H](C)[C@H](CN(C)S(=O)(=O)c2ccc(F)cc2)Oc2c(NC(=O)c3nc4ccccc4s3)cccc2C1=O	108*
COC(=O)c1ccc(C2C(C(=O)Nc3cc(OC)c(Cl)cc3OC)=C(C)Nc3ncnn32)cc1 (stereo unspecified)	21
CC(C)NC(=O)Nc1cccc2c1O[C@@H](CN(C)S(C)(=O)=O)[C@@H](C)CN([C@H](C)CO)C2=O	20
O=C(CSc1nc2ccccc2c(=O)[nH]1)NCCO	7
c1nncn1N=C1CCCCC1	2
C[C@@H]1CN([C@@H](C)CO)C(=O)c2cccc(NC(=O)c3nc4ccccc4s3)c2O[C@@H]1CN(C)CC1CCCCC1	117*
COc1ccc(C)cc1S(=O)(=O)N(C)CC(=O)Nc1ccccc1SC	-8
Cc1ccc(S(=O)(=O)Nc2ccc3c(c2)C(=O)N([C@H](C)CO)C[C@H](C)[C@@H](CN(C)Cc2ccncc2)OCCCC[C@@H](C)O3)cc1	24
O=C1c2ccccc2S(=O)(=O)N1CCCCN1C(=O)c2ccccc2S1(=O)=O	21
COc1ccc(C2(CNC(=O)c3ccc(OC)c([N+](=O)[O-])c3)CCCC2)cc1OC	14
CCOC(=O)N1CC=C2C(C1)C(c1cccc(C(F)(F)F)c1)C(C#N)=C(N)C2(C#N)C#N (stereo unspecified)	113*
C[C@H](CO)N1C[C@H](C)[C@@H](CN(C)Cc2ccc(C(F)(F)F)cc2)Oc2c(NC(=O)NC3CCCCC3)cccc2C1=O	84*
CCCCC(=O)N1c2ccccc2C(Nc2ccccc2)CC1C (stereo unspecified)	57
C[C@H]1CN([C@@H](C)CO)C(=O)c2cc(NC(=O)CCC(F)(F)F)ccc2O[C@@H]1CN(C)Cc1ccc2c(c1)OCO2	-3
Cc1cc(S(=O)(=O)Nc2c(C)nc3nc[nH]n3c2=O)ccc1F	23

Look-ups from above:
NOMO-1 viab, `CCCCC(=O)N1c2ccccc2C(Nc2ccccc2)CC1C` (stereo unspecified) = 57
NOMO-1 viab, `COc1ccc(C)cc1S(=O)(=O)N(C)CC(=O)Nc1ccccc1SC` = -8
NOMO-1 viab, `CCOC(=O)N1CC=C2C(C1)C(c1cccc(C(F)(F)F)c1)C(C#N)=C(N)C2(C#N)C#N` (stereo unspecified) = 113*

The list goes on:
SMILES	NOMO-1 viab
O=C(COc1ccc(Cl)cc1)Nc1cccc(-c2nc3ncccc3o2)c1	47
CC(C)NC(=O)Nc1ccc2c(c1)C(=O)N([C@H](C)CO)C[C@H](C)[C@@H](CN(C)CC1CCCCC1)O2	1
Cc1noc(C)c1NC(=O)Nc1ccc2c(c1)CC(=O)N([C@@H](C)CO)C[C@H](C)[C@@H](CN(C)S(C)(=O)=O)O2	-2
COc1ccc(S(=O)(=O)Nc2ccc3c(c2)C(=O)N([C@@H](C)CO)C[C@H](C)[C@@H](CN(C)C(=O)Nc2ccccc2)O3)cc1	3
C#CCN1C(=O)C(O)(CC(=O)c2ccc(C)o2)c2ccccc21 (stereo unspecified)	120*
Cc1noc(C)c1NC(=O)N(C)C[C@@H]1Oc2ccc(NS(=O)(=O)c3cn(C)cn3)cc2C(=O)N([C@H](C)CO)C[C@H]1C	-4
C[C@H](CO)N1C[C@H](C)[C@H](CN(C)C(=O)Nc2ccc(F)cc2)Oc2ccc(NC(=O)C3CCCCC3)cc2C1=O	29
O=C(CN1CCOCC1)Nc1sc2c(c1C(=O)Nc1ccc(Br)cc1)CCCC2	-12
Cc1ccc2cc3c(nc2c1)N(c1ccccc1)CC3	15
C[C@@H]1CN([C@@H](C)CO)C(=O)c2cccc(NC(=O)Nc3ccc(C(F)(F)F)cc3)c2O[C@@H]1CN(C)C(=O)Nc1cccc2ccccc12	66
CC(=O)c1cccc(N(CC(=O)N2CCN(c3ccccc3F)CC2)S(C)(=O)=O)c1	20
CSc1ccccc1NC(=O)CN(c1cccc(Cl)c1Cl)S(C)(=O)=O	3
Cc1ccc(S(=O)(=O)N(C)C[C@H]2Oc3ccc(NC(=O)Nc4c(C)noc4C)cc3C(=O)N([C@H](C)CO)C[C@@H]2C)cc1	-12
C[C@H](CO)N1C[C@H](C)[C@H](CN(C)Cc2ccc3c(c2)OCO3)Oc2ccc(NC(=O)Nc3ccccc3)cc2C1=O	94*
COc1ccc(S(=O)(=O)N(C)C[C@@H]2Oc3ccc(NC(=O)CCC(F)(F)F)cc3CC(=O)N([C@@H](C)CO)C[C@@H]2C)cc1	24
C/C=C1\C(O[C@@H]2O[C@H](CO)[C@@H](O)[C@H](O)[C@H]2O)OC=C(C(=O)OC)C1CC(=O)OC[C@H]1O[C@@H](OCCc2ccc(O)cc2)[C@H](OC(=O)CC2C(C(=O)OC)=COC(O[C@@H]3O[C@H](CO)[C@@H](O)[C@H](O)[C@H]3O)/C2=C\C)[C@@H](O)[C@@H]1O (stereo partly specified)	20
CNC[C@@H]1Oc2ccc(NC(=O)Nc3ccccc3)cc2CC(=O)N([C@H](C)CO)C[C@H]1C	17
Cc1noc(C)c1NC(=O)N(C)C[C@H]1Oc2ccc(NC(=O)C3CCCCC3)cc2C(=O)N([C@H](C)CO)C[C@H]1C	13
Oc1c(C(Nc2cccnc2)c2ccc(Cl)cc2)ccc2cccnc12 (stereo unspecified)	120*
C[C@H]1CN([C@@H](C)CO)C(=O)c2cc(NC(=O)Cn3cnnn3)ccc2O[C@H]1CN(C)C(=O)NC1CCCCC1	33
CCc1ccc(CCC(=O)Nc2cc(Cl)ccc2Cl)o1	34
Cn1c(SCC(=O)Nc2ccccc2[N+](=O)[O-])nc2ccccc2c1=O	31
C[C@@H]1CN([C@H](C)CO)C(=O)c2cccc(NS(=O)(=O)c3ccc(F)cc3)c2O[C@H]1CN(C)C(=O)NC1CCCCC1	-13
C[C@@H]1CN([C@@H](C)CO)C(=O)c2cc(NC(=O)Cc3ccccc3)ccc2O[C@H]1CN(C)S(=O)(=O)c1ccc(F)cc1	8
C[C@@H]1CN([C@H](C)CO)C(=O)Cc2cc(NS(=O)(=O)c3ccc(F)cc3)ccc2O[C@@H]1CN(C)Cc1ccc(Oc2ccccc2)cc1	115*
COc1cc2occ(-c3ccc(O)cc3)c(=O)c2c(OC)c1O	12
C[C@@H]1CN([C@@H](C)CO)C(=O)c2cccc(NS(=O)(=O)c3ccc(Cl)cc3)c2O[C@@H]1CN(C)CC1CCCCC1	19
Cn1c(NCc2ccco2)nc2c1c(=O)n(Cc1cccc(Br)c1)c(=O)n2C	-7
O=C(c1cccc(Cl)c1)N1CCCC1	-1
C[C@@H]1CN([C@H](C)CO)C(=O)Cc2cc(NC(=O)Nc3cccc4ccccc34)ccc2O[C@H]1CN(C)S(=O)(=O)c1cn(C)cn1	1
CCCn1c2ccccc2c2nnc(SCCN3CCCCC3)nc21	28
COc1ccc(S(=O)(=O)Nc2ccc3c(c2)CC(=O)N([C@@H](C)CO)C[C@@H](C)[C@@H](CN(C)C(=O)Nc2cccc4ccccc24)O3)cc1	-1
O=C(c1cccs1)c1coc2ccc(O)cc12	7
COc1ccc(CCNc2ncnc3nc[nH]c23)cc1OC	18
